Screening data from PubChem BioAssay.
VACV mCherry inh: vaccinia inhibition (mCherry reporter); Vaccinia virus mCherry reporter infection, fluorescence; about a quarter of the inactives have no number; Potency, µM (titrated, usually from 36.5 µM), for inactives: at the top dose activity change, negative = inhibition, hits mostly inhibitors; 0.63% of 310,000 active; AID 720579; active = well fitted inhibition curve with a large enough effect; inconclusive = small, poorly fitted or top-dose-only effect; inactive = no such curve, though single readings can be large or run the other way; tested in A549 cells; also: nearly all actives have a fitted effect of over 35% in size; inactives centre near -10
VACV Venus inh: vaccinia inhibition (Venus reporter); Vaccinia virus Venus reporter expression, fluorescence; Potency, µM (top dose mostly 36.5 µM), without a hit: at the top dose activity change, negative = inhibition, actives largely listed as inhibitors; 0.46% of 330,000 active; active means well fitted inhibition curve with a large enough effect; inconclusive means small, poorly fitted or top-dose-only effect; inactive means no such curve, though single readings can be large or run the other way; tested in A549 cells; also: nearly all actives have a fitted effect of over 30% in size; inactives centre near -10
* hit, by the source's call; i = inactive; ? = inconclusive; nt = not tested or not shown; & = joins results of further samples; [ ] = dose if it differs, or a comment. % is scaled to controls: 0 for no effect and ±100 for the full control effect; potency is read from the fitted curve at half-maximal effect.

> COc1ccc(C=O)cc1OS(=O)(=O)c1ccccc1[N+](=O)[O-]
  VACV mCherry inh: -1%	VACV Venus inh: -13%

> C=C1[C@@H](O)[C@H](CC(C)C)N(Cc2ccccc2Br)S1(=O)=O
  VACV mCherry inh: ?	VACV Venus inh: 10µM*

> Cc1ccc(NC(=O)c2ccc(S(=O)(=O)C(F)F)cc2)c(C)c1
  VACV mCherry inh: -25%	VACV Venus inh: -22%

> O=S(=O)(c1ccc(-c2nnco2)cc1)N1CCCCC1
  VACV mCherry inh: -4%	VACV Venus inh: 0%

> CN(Cc1ccccc1)C(=O)CCS(=O)(=O)c1cc2c(cc1Cl)NC(=O)CO2
  VACV mCherry inh: -25%	VACV Venus inh: -1%

> COc1cc(C(=O)N/C(=C\c2cn(C)c3ccccc23)C(=O)N2CCN(C)CC2)cc(OC)c1OC
  VACV mCherry inh: ?	VACV Venus inh: -9%

> O=[N+]([O-])c1ccc(COc2ccc(CNc3ccccc3)cc2)cc1
  VACV mCherry inh: i	VACV Venus inh: 4%

> O=C(COc1ncnc2c(Cl)cc(Cl)cc12)N1CCN(S(=O)(=O)c2ccccc2)CC1
  VACV mCherry inh: i	VACV Venus inh: -6%

> CCOCCCn1c(SCC(=O)Nc2ccc(C)cc2)nc2ccccc2c1=O
  VACV mCherry inh: -20%	VACV Venus inh: -18%

> Cc1ccc(-c2csc(N3CCN(CCCn4c(C(F)(F)F)nc5ccccc54)CC3)n2)cc1
  VACV mCherry inh: -21%	VACV Venus inh: -26%

> CCN(CC)C(=O)C1=C(C)N(Cc2ccc(C(C)(C)C)cc2)C(=O)C(CC(=O)NCCN2CCOCC2)C1 (stereo not drawn)
  VACV mCherry inh: -6%	VACV Venus inh: -24%

> CCn1c(Cc2ccc(OC)cc2)nnc1SCC(=O)Nc1cccc(C(=O)OC)c1
  VACV mCherry inh: -24%	VACV Venus inh: -13%

> COCCNC(=O)C(c1ccc(C)cc1)N(Cc1cccs1)C(=O)CCC(=O)Nc1ccccn1 (stereo not drawn)
  VACV mCherry inh: -7%	VACV Venus inh: -7%

> COc1cc2cc(C#N)c(SCC(=O)Nc3cc(C)on3)nc2cc1OC
  VACV mCherry inh: -14%	VACV Venus inh: -19%

> CCN(CC)CCCNC(=O)c1cnc(SC)nc1-c1ccccc1
  VACV mCherry inh: 0%	VACV Venus inh: 0%

> CCN1C(=O)c2ccccc2S(=O)c2ccc(C(=O)N3CCN(c4cccc(Cl)c4)CC3)cc21 (stereo not drawn)
  VACV mCherry inh: -14%	VACV Venus inh: -18%

> O=C(CSc1nnc(Nc2ccccc2)s1)NN1C(=O)NC2(CCCCC2)C1=O
  VACV mCherry inh: i	VACV Venus inh: -3%

> Cc1cc(NC(=O)c2ccccc2)c(Cl)cc1N
  VACV mCherry inh: ?	VACV Venus inh: -3%

> CC(C)Oc1ccc(S(=O)(=O)N2CCCCC2)cc1NC(=O)CN1C(=O)NC2(CCCC2)C1=O
  VACV mCherry inh: -11%	VACV Venus inh: 6%

> CCC(C(=O)Nc1ccccc1)n1nc(-c2cc(C)ccc2C)ccc1=O (stereo not drawn)
  VACV mCherry inh: -15%	VACV Venus inh: -21%

> CN(C)c1nc(C#N)nc(N2CCOCC2)n1
  VACV mCherry inh: 15%	VACV Venus inh: -9%&-11%

> C=CCN1C(=O)c2ccccc2NC1c1cc(Br)cs1 (stereo not drawn)
  VACV mCherry inh: 2%	VACV Venus inh: 3%

> O=C(COc1cccc(Cl)c1)Nc1ccc(N2CCOCC2)cc1
  VACV mCherry inh: -4%	VACV Venus inh: -16%

> O=C(NCc1cccs1)C1Cc2c(-c3ccccc3Oc3ccccc3)ccnc2O1 (stereo not drawn)
  VACV mCherry inh: i	VACV Venus inh: -9%

> CCC1(C2=CCCCC2)C(=O)NC(=O)N=C1N (stereo not drawn)
  VACV mCherry inh: -18%	VACV Venus inh: -2%

> O=C(NCCc1ccc(F)cc1)c1n[nH]c2ccccc12
  VACV mCherry inh: i	VACV Venus inh: -15%

> CCN(CCCNC(=O)c1c(C)oc2ncn(CC(C)C)c(=O)c12)Cc1ccccc1
  VACV mCherry inh: -16%	VACV Venus inh: -3%

> C=CCC[C@@H](Cc1ccc(F)cc1)C(=O)OC[C@H](Cc1c[nH]c2ccccc12)NC(=O)[C@@H](CC=C)CC(=O)N[C@@H](CO)Cc1ccccc1
  VACV mCherry inh: -6%	VACV Venus inh: ?

> Cc1ccc(-c2cc(C(=O)Nc3cc(C)on3)c3ccccc3n2)c(C)c1
  VACV mCherry inh: -2%	VACV Venus inh: -7%

> CC(C)CN(C#N)c1nc(N2CCOCC2)nc(N2CCOCC2)n1
  VACV mCherry inh: -8%	VACV Venus inh: -20%

> Cc1ccc(NC(=O)NC(=O)c2ccccc2)cc1F
  VACV mCherry inh: -11%	VACV Venus inh: -7%

> O=C(c1ccc(F)c(S(=O)(=O)N2CCOCC2)c1)N(CCc1ccccc1)Cc1ccccc1
  VACV mCherry inh: -25%	VACV Venus inh: -25%

> Cc1cccc(N2C(=O)CS/C2=N\NC(=O)c2ccc(Cl)cc2)c1C
  VACV mCherry inh: -15%	VACV Venus inh: -2%

> COc1cc(NS(=O)(=O)c2ccc(NC(=O)c3ccc(F)cc3)cc2)ncn1
  VACV mCherry inh: i	VACV Venus inh: -8%

> C[C@H]1CN([C@@H](C)CO)S(=O)(=O)c2ccc(Br)cc2O[C@H]1CN(C)Cc1ccccc1
  VACV mCherry inh: -10%	VACV Venus inh: -9%

> Cc1cc(S(=O)(=O)N2CCOCC2)ccc1OCC(=O)Nc1ccc(Br)cc1F
  VACV mCherry inh: 1%	VACV Venus inh: 0%

> c1ccc(Cc2noc(CN3CCN(Cc4ccc5c(c4)OCO5)CC3)n2)cc1
  VACV mCherry inh: -9%	VACV Venus inh: -15%

> O=S(=O)(c1ccccc1)c1nc(-c2ccco2)oc1SCc1ccc(F)cc1
  VACV mCherry inh: -16%	VACV Venus inh: -16%

> CCc1cccc(OCCCCNCCCOC)c1
  VACV mCherry inh: -22%	VACV Venus inh: -10%

> CC(C)N1CCC(C)(C(=O)Nc2cccc3c2CCCC3)C1 (stereo not drawn)
  VACV mCherry inh: i	VACV Venus inh: 10%

> Cc1cc(F)ccc1S(=O)(=O)N1CCCOC1CNC(=O)C(=O)NCCC1=CCCCC1 (stereo not drawn)
  VACV mCherry inh: -14%	VACV Venus inh: -27%

> COc1ccc(-c2cc(C(=O)Nc3cc(OC)c(OC)c(OC)c3)[nH]n2)c(C)c1
  VACV mCherry inh: ?	VACV Venus inh: -17%

> COc1ccc2c(c1OC)C(=O)N1c3ccccc3C(=O)N(c3ccc(F)cc3)C21 (stereo not drawn)
  VACV mCherry inh: nt	VACV Venus inh: -1%

> CCOC(=O)c1ccc(NC(=O)CSc2ccc(-c3ccncc3)nn2)cc1
  VACV mCherry inh: -4%	VACV Venus inh: -8%

> CCOc1ccc(NC(=O)CN2CCc3ccccc3C2)cc1
  VACV mCherry inh: -15%	VACV Venus inh: -9%

> COc1ccc(CCN2CCC(CNC(=O)c3cnn(-c4cccc(Cl)c4)c3C3CCN(C(=O)OC(C)(C)C)CC3)CC2)cc1
  VACV mCherry inh: ?	VACV Venus inh: ?

> COc1ccc(-c2nn(-c3ccccc3)cc2CNCc2cccnc2)c(F)c1
  VACV mCherry inh: i	VACV Venus inh: -13%

> Cc1cccc(C(=O)NCCNC(=O)c2cccnc2)c1
  VACV mCherry inh: -16%	VACV Venus inh: -1%

> CC(=O)NC(CC(=O)OCC(=O)Nc1ccc2c(c1)OCO2)c1ccccc1 (stereo not drawn)
  VACV mCherry inh: -29%	VACV Venus inh: 4%

> CCc1ccccc1NC(=O)C1CCCN(c2nnc(-n3c(C)ccc3C)s2)C1 (stereo not drawn)
  VACV mCherry inh: ?	VACV Venus inh: -30%

> Cc1ccc(-n2nnnc2Sc2nc([N+](=O)[O-])nn2C)cc1
  VACV mCherry inh: -29%	VACV Venus inh: ?

> COc1ccc([N+](=O)[O-])cc1-n1cccc1
  VACV mCherry inh: -10%	VACV Venus inh: -4%

> COc1ccccc1C(=O)Nc1nc(-c2ccccc2)ns1
  VACV mCherry inh: 2%	VACV Venus inh: -9%

> O=c1[nH]c(=O)n(Cc2ccc(F)cc2)c(O)c1C=NCC1CCCO1 (stereo not drawn)
  VACV mCherry inh: 0%	VACV Venus inh: -19%

> CCOC(=O)C1(C(=O)OCC)CCN(S(=O)(=O)c2ccccc2)CC1
  VACV mCherry inh: -16%	VACV Venus inh: -6%

> CCSc1nnc(NC(=O)C(C)Sc2nc3ccccc3[nH]2)s1 (stereo not drawn)
  VACV mCherry inh: -15%	VACV Venus inh: -13%

> Cc1ccc(-c2nn(-c3ccccc3)c3c2cnc2ccccc23)cc1C
  VACV mCherry inh: -3%	VACV Venus inh: 5%

> CNC1C(O)C(O)C(CO)O[C@H]1OC1C(O[C@@H]2C(O)C(O)[C@@H](N=C(N)N)C(O)C2N=C(N)N)OC(C)[C@]1(O)C=O (stereo partly drawn)
  VACV mCherry inh: -9%	VACV Venus inh: -7%

> CCOC(=O)N1CCN(c2ccc(S(=O)(=O)N(Cc3ccccc3)Cc3ccccc3)cn2)CC1
  VACV mCherry inh: nt	VACV Venus inh: -10%

> CCOc1ccc(N2CC(=O)SC2=S)cc1
  VACV mCherry inh: 4%	VACV Venus inh: 42%[activator]

> COC(=O)c1cc(NC(=O)c2cccc(C(F)(F)F)c2)c(=O)oc1C
  VACV mCherry inh: -16%	VACV Venus inh: -9%

> Cc1ccc(-n2ccn(CC(=O)NCCc3ccccc3)c(=O)c2=O)cc1C
  VACV mCherry inh: -11%	VACV Venus inh: -8%

> O=C(CSc1nnc(NC(=O)c2ccco2)s1)Nc1ccc2c(c1)OCCO2
  VACV mCherry inh: i	VACV Venus inh: -13%

> CCOC(=O)c1sc(NC(=O)c2cc3c(s2)CCC(C)C3)nc1C (stereo not drawn)
  VACV mCherry inh: -16%	VACV Venus inh: -4%

> COc1ccc(-n2c(Cn3c(=O)sc4ccccc43)nnc2SCC(=O)N2CCCCC2)cc1
  VACV mCherry inh: -5%	VACV Venus inh: -1%

> Cc1ccc(NC(=O)Nc2nnc(SCC(=O)N3CCC(C)CC3)s2)cc1
  VACV mCherry inh: 2%[7.34 µM]	VACV Venus inh: -4%[7.34 µM]

> O=C(c1cccc2nccnc12)N1CCCC(Nc2ccc(F)c(F)c2)C1 (stereo not drawn)
  VACV mCherry inh: -7%	VACV Venus inh: 2%

> NC(=O)CC[C@@H]1NC(=O)[C@H](CO)NC(=O)c2cc([N+](=O)[O-])cc(I)c2OCC[C@@H](C(N)=O)NC1=O
  VACV mCherry inh: -18%	VACV Venus inh: -2%

> OC(c1cccc(Cl)c1)c1nc(/C=C/c2ccccc2)cs1 (stereo not drawn)
  VACV mCherry inh: 6%	VACV Venus inh: -3%

> O=C1CC(NNc2nc3ccccc3s2)C(=O)N1c1ccccc1 (stereo not drawn)
  VACV mCherry inh: -2%	VACV Venus inh: -13%

> CC(=O)NC(=S)NNC(=O)COc1ccc([N+](=O)[O-])cc1
  VACV mCherry inh: 2%	VACV Venus inh: -4%

> Cc1ccc(S(=O)(=O)N(C)c2ccc(OC(=O)COc3ccccc3)cc2)cc1
  VACV mCherry inh: -23%	VACV Venus inh: -18%

> COc1cccc(C(=O)NC2=NC(c3ccc(N(C)C)cc3)CC(=O)N2)c1 (stereo not drawn)
  VACV mCherry inh: 11%	VACV Venus inh: 0%

> COc1ccc(NC(=S)Nc2ccc(S(N)(=O)=O)cc2)c(C)c1
  VACV mCherry inh: -11%	VACV Venus inh: -4%

> Cc1cccc(CSCc2ccc(C(=O)NCC3CCCO3)o2)c1 (stereo not drawn)
  VACV mCherry inh: -6%	VACV Venus inh: -7%

> O=C(O)c1ccc(-n2c(-c3ccc(Br)cc3)n[nH]c2=S)cc1
  VACV mCherry inh: -7%	VACV Venus inh: -3%

> c1cn(-c2ncnc3sc4c(c23)CCCC4)cn1
  VACV mCherry inh: nt	VACV Venus inh: ?

> O=C(/C=C\Nc1ccc2c(c1)OCO2)c1ccc2c(c1)OCO2
  VACV mCherry inh: -28%	VACV Venus inh: -15%

> COc1ccc2c(c1)c(C(=O)N/N=C/c1cccs1)c(C)n2C
  VACV mCherry inh: i	VACV Venus inh: -2%

> CC(C)C1Cc2[nH][nH]c(=O)c2C(c2ccc(Cl)cc2)O1 (stereo not drawn)
  VACV mCherry inh: -8%	VACV Venus inh: -11%

> CCN(CC(=O)Nc1ccccc1C(F)(F)F)C(=O)c1ccc2[nH]c3c(c2c1)CC(C)CC3 (stereo not drawn)
  VACV mCherry inh: -27%	VACV Venus inh: ?

> O=C(CN1CCCCC1)N/N=C/c1cccc(C(F)(F)F)c1
  VACV mCherry inh: -14%	VACV Venus inh: -9%

> CC1CCCCC1NC(=O)CN1CCC(NC(=O)c2ccc([N+](=O)[O-])cc2)CC1 (stereo not drawn)
  VACV mCherry inh: 9%	VACV Venus inh: 1%

> COCCNC(=O)C1CCCN(Cc2ccc(-c3ccccc3)cc2)CC1 (stereo not drawn)
  VACV mCherry inh: i	VACV Venus inh: 3%

> COC(=O)c1ccccc1NC(=O)Cn1c(=O)n(CCC(=O)NC2CCN(Cc3ccccc3)CC2)c(=O)c2ccccc21
  VACV mCherry inh: -2%	VACV Venus inh: -6%

> O=S(=O)(c1ccc2[nH]c3c(c2c1)CCCC3)N1CCN(c2cccc(C(F)(F)F)c2)CC1
  VACV mCherry inh: -17%	VACV Venus inh: -16%

> CN(C)S(=O)(=O)c1ccc(C(=O)Nc2cccc(C(=O)O)c2)cc1
  VACV mCherry inh: nt	VACV Venus inh: -12%
